From PubChem
GoLoco inh red: inhibitors of human Gai1-RGS12 GoLoco interaction (red fluorophore). P63096. Gai1:RGS12 GoLoco peptide FP, rhodamine, 10 min. Potency, µM (series often up to 61.6 µM), inactives show at the highest dose activity, negative = inhibition, usual class: inhibitors. hit rate 0.44% among 230,000. AID 880; active = well fitted inhibition curve with a large enough effect, not every such curve was filed as active; inactive = no such curve, though single readings can be large or run the other way; also: % is scaled to controls: 0 for no effect and ±100 for the full control effect; nearly all actives have a fitted effect of over 30% in size; many of its hits are not listed in these tables
KinaseGlo FLuc: blocks Kinase-Glo luciferase, a counter-screen artifact; Potency, µM (highest dose often 38.3 µM), for inactives: at the top dose activity change, negative = inhibition, usual class: inhibitors; hit rate 0.28% among 200,000; Kinase-Glo luciferase, ATP luminescence, 8 min; Q27757; also: % is scaled to controls: 0 for no effect and ±100 for the full control effect; nearly all actives have a fitted effect of over 60% in size
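Inhibition of Kinase-Glo luciferase light generation was assessed at 10 uM ATP in pH 7.2 imidazole buffer, with luminescence measured after eight minutes at ambient temperature.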
SMN2 splice up: SMN2 splice variant enhancement | HEK293 SMN2-luciferase splicing reporter, luminescence, 30-36 h | Potency, µM (highest dose often 46.1 µM), for inactives: at the highest dose activity change, positive = activation, usual class: activators | hit rate 2.8% among 210,000 | AID 1458; also: % of control where 0% means no effect; nearly all actives have a fitted effect of over 55% in size
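HEK293 cells carry an SMN2 minigene-luciferase reporter in which exon 7 inclusion puts luciferase in frame. Cells were seeded at 2000 cells/well, attached for 10-12 hours, then exposed to compounds for 30-36 hours at 37C before ONE-Glo luminescence.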
IMPase Li inh: IMPase inhibition in cells with lithium potentiation; CHO-M1 cells, IP1 TR-FRET (IP-One), carbachol + lithium; Potency, µM (series often up to 59.4 µM), for the others: at the highest dose activity, negative = IMPase inhibition, actives largely listed as inhibitors; hit rate 0.35% among 210,000; AID 1457;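 also: IP1 builds up when IMPase is blocked and the TR-FRET signal falls; plate controls were basal vehicle for no effect and high inhibitor control for full effect; nearly all actives have a fitted effect of over 50% in size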
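Test compounds were applied to CHO-M1 cells previously cultured for 16–30 h at 2000 per well. A small lithium amount accompanied them; after 30 min at 37C, IP1 was quantified by TR-FRET.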
NPSR antagonist: neuropeptide S receptor (human) antagonism, cAMP. Potency, µM (top dose mostly 38.3 µM), for inactives: at the top dose activity change, negative = inhibition, most hits filed as inhibitors. hit rate 1% among 220,000. Q6W5P4. CHO-NPSR cells, cAMP TR-FRET, antagonist mode. AID 1461; also: % is scaled to controls: 0 for no effect and ±100 for the full control effect; nearly all actives have a fitted effect of over 50% in size; many of its hits are not listed in these tables
Target sequence (Q6W5P4 whole entry, looked up): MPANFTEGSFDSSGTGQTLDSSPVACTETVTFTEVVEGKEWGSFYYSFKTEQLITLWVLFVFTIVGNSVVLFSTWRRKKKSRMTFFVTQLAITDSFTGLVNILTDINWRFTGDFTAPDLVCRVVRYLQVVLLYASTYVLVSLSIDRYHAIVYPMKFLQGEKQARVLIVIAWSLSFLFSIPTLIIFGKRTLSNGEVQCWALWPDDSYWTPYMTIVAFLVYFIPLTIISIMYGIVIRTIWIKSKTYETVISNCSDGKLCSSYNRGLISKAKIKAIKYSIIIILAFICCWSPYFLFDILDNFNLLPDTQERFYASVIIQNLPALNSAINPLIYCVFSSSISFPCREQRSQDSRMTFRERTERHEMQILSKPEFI
Epigenetic derep: epigenetic control regulation, reporter derepression; Potency, µM (doses to about 53.9 µM), inactives show top-dose GFP activation, hits mostly activators; murine LDR cells, GFP reporter derepression, 30 h; hit rate 0.2% among 280,000; also: % of control where 0% means no effect; nearly all actives have a fitted effect of over 60% in size
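Murine LDR cells bearing a silenced CMV-driven GFP reporter were exposed to compound for 30 h at 37 C. After PBS washes, GFP-positive cells (20-120 um objects) counted by laser-scanning microplate cytometry.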
RECQ1 inh: blocks DNA unwinding by human RECQ1 | P46063 | Potency, µM (series often up to 57.3 µM), inactives show top-dose activity, negative = inhibition, actives largely listed as inhibitors | RECQ1 DNA unwinding, red fluorescence kinetic read | hit rate 0.54% among 240,000;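 also: plate controls were vehicle for no effect and no enzyme for full effect; nearly all actives have a fitted effect of over 30% in size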
Target sequence (P46063 whole entry, looked up): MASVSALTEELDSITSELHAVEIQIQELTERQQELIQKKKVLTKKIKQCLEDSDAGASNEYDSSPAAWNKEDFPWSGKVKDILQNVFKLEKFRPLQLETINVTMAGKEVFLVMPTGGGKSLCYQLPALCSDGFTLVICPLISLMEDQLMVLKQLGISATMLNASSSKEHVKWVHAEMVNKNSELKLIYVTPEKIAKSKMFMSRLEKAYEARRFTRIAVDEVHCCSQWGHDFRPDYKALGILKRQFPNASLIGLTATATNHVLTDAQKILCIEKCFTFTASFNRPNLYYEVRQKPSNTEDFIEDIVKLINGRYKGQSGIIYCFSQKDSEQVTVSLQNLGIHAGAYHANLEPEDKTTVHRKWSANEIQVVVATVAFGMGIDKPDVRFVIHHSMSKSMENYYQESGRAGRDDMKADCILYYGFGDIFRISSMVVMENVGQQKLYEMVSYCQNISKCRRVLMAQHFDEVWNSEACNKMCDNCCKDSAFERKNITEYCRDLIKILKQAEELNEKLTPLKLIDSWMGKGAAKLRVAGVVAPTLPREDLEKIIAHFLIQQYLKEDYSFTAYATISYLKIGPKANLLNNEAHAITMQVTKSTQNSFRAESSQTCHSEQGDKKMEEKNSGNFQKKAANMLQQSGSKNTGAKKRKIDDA
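50 nM RECQ1T1 preincubated 15 min with compound in Tris pH 8.0 buffer with MgCl2, DTT, Tween-20 and 2.5 ug/ml poly(dI-dC); started with 200 nM TAMRA/BHQ-2 forked duplex and 2 mM ATP. Unwinding read as fluorescence (525/598 nm), two reads 2 h apart.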
* = called active by the depositor; i = inactive; ? = inconclusive; . = not tested or not shown; [ ] = remark or other dose. Unless noted, calls follow the shape of the dose curve; as a rule, active = well fitted curve in the direction sought with a large enough effect; inconclusive = small, poorly fitted or top-dose-only effect, or another doubt; inactive = no such curve, though single readings can be large; an effect the other way counts as inactive or inconclusive. Potency is read from the fitted curve at half-maximal effect. This is a subset; rates above refer to the full screens.

1	O=C(NCCCl)NNC(=O)c1cc2ccccc2cc1O
2	Cc1nc(N2CCN(C(=O)c3ccco3)CC2)c2c3c(sc2n1)CCCC3
3	C[C@H](NC(=O)c1nc[nH]c1C(=O)N1CCc2ccccc2C1)C(=O)OC(C)(C)C
4	COc1ccc(-c2nnc(-c3cccnc3)o2)cc1
5	O=C(CSc1nc(O)cc(=O)n1-c1ccccc1)Nc1ccc2c3c(cccc13)CC2
6	CCOC(=O)N1CCN(CC(O)c2ccccc2)CC1 (stereo unspecified)
7	N#C/C(=C\c1ccc([N+](=O)[O-])cc1)C(=O)Nc1ccccc1O
8	COCCN1C(=O)Cc2c1nc(N)c1c(N)nc(N3CCN(c4ccc(F)cc4)CC3)c(C#N)c21
9	CC(C)n1cc(-c2nc(C(=O)NN)cs2)c(=O)n(Cc2ccccc2)c1=O
10	O=C(CN1CCN(Cc2ccccc2)CC1)NC(c1ccccc1)c1ccccc1
Screen / compound no.	1	2	3	4	5	6	7	8	9	10
GoLoco inh red	1%	0%	2%	-5%	75%[activator]	-3%	12%	-3%	0%	-1%
KinaseGlo FLuc	.	3%	.	1%	-4%	0%	-3%	-1%	.	.
IMPase Li inh	.	13%	.	1%[38.3 µM]	-10%	3%	22%	2%	.	.
NPSR antagonist	6%	-59%	13%	-11%[46.1 µM]	-3%	12%	-54%	-19%	?	-11%
SMN2 splice up	.	-28%	.	?	-4%	-3%	12%	4%	.	.
RECQ1 inh	-6%	0%	i	i	5%	-9%	-4%	7%	-5%	i
Epigenetic derep	0.1%	-0.1%	-1.7%	-0.4%	14%	0.9%	1.5%	1.3%	1.1%	10%

11	O=C(COc1ccc(Cl)cc1Cl)NCc1ccncc1
12	Cc1ccc(NC(=S)N(N)CCO)cc1
13	CC(O)CNCCCOc1ccc(Cl)cc1C(C)(C)C (stereo unspecified)
14	O=C1c2cccnc2C(Nc2ccc(F)c(Cl)c2)N1Cc1cccs1 (stereo unspecified)
15	Cc1c(NC(=O)CN2CCN(c3ccc(O)cc3)CC2)c(=O)n(-c2ccccc2)n1C
16	Cc1[nH][nH]c(=O)c1C(c1cc([N+](=O)[O-])ccc1O)c1c(C)[nH][nH]c1=O
17	CC(C)(C)c1nc2scc(-c3cccs3)c2c(=O)o1
18	COC(=O)C1(Cc2ccc(O)cc2)OC(=O)C(O)=C1c1ccc(O)cc1 (stereo unspecified)
19	COc1ccc(-c2ccc(SCC(=O)NCc3ccc4c(c3)OCO4)nn2)cc1OC
20	N#C/C(=C/c1ccc([N+](=O)[O-])cc1)C(=O)Nc1ccccc1O
Screen / compound no.	11	12	13	14	15	16	17	18	19	20
GoLoco inh red	7%	-1%	1%	-10%	-1%	-4%	6%	-13%	-2%	10%
KinaseGlo FLuc	-7%	2%	0%	-1%	0%	0%	-1%	.	-1%	-5%
IMPase Li inh	-20%[38.3 µM]	-7%	3%	-13%	13%	21%	28%[38.3 µM]	.	9%	10%
NPSR antagonist	-17%[46.1 µM]	13%	15%	-41%	6%	11%	8%[46.1 µM]	-2%	-3%	-11%
SMN2 splice up	-23%	20%	.	-8%	4%	10%	.	.	12%	-3%
RECQ1 inh	-2%	-2%	-2%	-3%	-6%	-8%	-10%	?	-14%	0%
Epigenetic derep	-0.7%	-0.1%	-0.6%	1.1%	-0.3%	-1.1%	-1.1%	2.6%	0.0%	-0.5%

21	COCCCNCCCOc1ccc(C)cc1Br
22	O=C1CN(C(=O)CNCc2ccccc2Cl)c2ccccc2N1
23	Cc1ccc(-n2ncc3c(NNC(=O)Cc4ccccc4)ncnc32)cc1
24	COCCCNCCOc1ccccc1-c1ccccc1
25	CC(=O)Nc1c(C(=O)O)[nH]c2ccccc12
26	C=CCc1ccc(OCCOc2cccc3ccc(C)nc23)c(OC)c1
27	COCCN1C=C2C(=O)C(C)(OC(=O)c3cccs3)C(=O)C=C2C=C1CCCC(=O)OC (stereo unspecified)
28	CCCc1nnc(NC(=O)c2c(O)c3cccc4c3n(c2=O)CC4)s1
29	COC(=O)c1cc(C(=O)c2ccc(Cl)cc2)n2c(=O)/c(=C\N(C)C)sc12
30	O=C(NNC(=O)C(c1ccccc1)c1ccccc1)c1ccccn1
Screen / compound no.	21	22	23	24	25	26	27	28	29	30
GoLoco inh red	-13%	-10%	6%	-2%	-10%	-16%	-53%[14.2 µM]	-1%	45%[activator]	1%
KinaseGlo FLuc	-2%	.	0%	1%	2%	-3%	0%[7.66 µM]	-2%	-4%	1%
IMPase Li inh	3%	.	-3%	14%	1%	14%[38.3 µM]	6%	31%[38.3 µM]	-5%	-1%
NPSR antagonist	21%	-2%	12%	12%	-9%[46.1 µM]	-8%[46.1 µM]	5%	-16%[46.1 µM]	-44%	-8%
SMN2 splice up	1%	.	-18%	-11%	12%	7%	.	-29%	2%	-90%[inhibitor]
RECQ1 inh	-13%	-6%	-6%	-5%	3%	-3%	2%[11.5 µM]	-12%	0%	0%
Epigenetic derep	-0.9%	-1.3%	0.0%	-0.9%	6.3%	-0.9%	-2.0%	0.0%	?	7.7%

31	COc1ccc(NC(=O)C(NCC(C)C)c2ccccc2)cc1Cl (stereo unspecified)
32	COc1ccc(NC(=O)C2(c3ccc(NC(=O)c4ccc(OC(C)=O)cc4)cc3)CCCC2)cc1
33	c1cc(CN2CCN(C3CCCCCC3)CC2)ccn1
34	COc1ccc(-c2cc(OC(=O)c3ccc(F)cc3)c3c(C)oc(C)c3c(=O)c2)cc1
35	Cc1ccccc1OCC(O)CN1CCN(C)CC1 (stereo unspecified)
36	CC(=O)SC(C[N+](=O)[O-])c1cn(C(C)=O)c2ccccc12 (stereo unspecified)
37	CCN(CC)C(=O)CN1CCN(c2ncccn2)CC1
38	S=C1NC(c2cccs2)=CC(c2ccc(Br)cc2)N1 (stereo unspecified)
39	COC(=O)c1ccccc1NC(=O)c1ccc(COc2ccc3c(c2)CCC3)cc1
40	CCOC(=O)CN1NC2(CCCCCCC2)NC1=S
Screen / compound no.	31	32	33	34	35	36	37	38	39	40
GoLoco inh red	1%	2%	-1%	18%	19%	.	-2%	7%	-17%	-28%
KinaseGlo FLuc	-2%	-1%	1%	-1%	-3%	.	2%	0%	1%	.
IMPase Li inh	3%	0%[38.3 µM]	26%	6%[38.3 µM]	-3%	.	12%[38.3 µM]	-7%	3%[38.3 µM]	.
NPSR antagonist	-3%	-6%[46.1 µM]	14%	-18%[46.1 µM]	11%	?	10%[46.1 µM]	-40%	-11%[46.1 µM]	6%
SMN2 splice up	25%	0%	-7%	-7%	-5%	.	3%	-15%	-2%	.
RECQ1 inh	-15%	-7%	-15%	-12%	i	i	-3%	-6%	5%	-4%
Epigenetic derep	1.3%	2.1%	-1.4%	-0.9%	1.1%	-0.5%	-1.9%	-1.8%	?	-1.0%

Another view of some results above:
Below each compound – GoLoco inh red, KinaseGlo FLuc, IMPase Li inh, NPSR antagonist, SMN2 splice up, RECQ1 inh, Epigenetic derep
38	S=C1NC(c2cccs2)=CC(c2ccc(Br)cc2)N1 (stereo unspecified)
  7%, 0%, -7%, -40%, -15%, -6%, -1.8%
39	COC(=O)c1ccccc1NC(=O)c1ccc(COc2ccc3c(c2)CCC3)cc1
  -17%, 1%, 3%[38.3 µM], -11%[46.1 µM], -2%, 5%, ?
40	CCOC(=O)CN1NC2(CCCCCCC2)NC1=S
  -28%, ., ., 6%, ., -4%, -1.0%

(cont.)
41	O=C(Nc1ccc2snnc2c1)N1CCCCC1
42	CSc1ccccc1NC(=O)c1cc2ncc(Br)cn2n1
43	COCC(C)N=C1NN=C(c2cccs2)C(CC(=O)O)S1 (stereo unspecified)
44	Cc1cc2oc(C(=O)NCc3ccc(S(N)(=O)=O)cc3)c(C)c2cc1C
45	COC(=O)c1ccc(/C=N/N2C(C)CCCC2C)cc1 (stereo unspecified)
46	C=CCOC(=O)C1=C(C)NC(C)=C(C(=O)OCC=C)C1/C=C/c1ccccc1
47	COc1ccc(Nc2nc3c([nH]2)c(=O)[nH]c(=O)n3C)cc1
48	O=Cc1ccc(OCc2ccccn2)cc1
49	Cc1cc(OCCCn2ccnc2)ccc1C(C)C
50	CCOC(=O)/C(C#N)=C1/C=CNC(=O)N1
Screen / compound no.	41	42	43	44	45	46	47	48	49	50
GoLoco inh red	2%	1%	0%	-5%	4%	9%	11%	2%	-2%	1%
KinaseGlo FLuc	-4%	-1%	3%	0%	-6%	-1%	0%	?	0%	-6%
IMPase Li inh	2%	-27%	3%	-29%	5%	6%[38.3 µM]	16%	4%	8%	-21%[38.3 µM]
NPSR antagonist	-14%	-35%	-35%	-18%	1%	-9%[46.1 µM]	-16%	13%	17%	2%[46.1 µM]
SMN2 splice up	.	3.2µM*	12%	-3%	?	-7%	8%	16µM*	-12%	-7%
RECQ1 inh	-2%	i	i	i	-2%	-17%	i	-5%	-2%	-8%
Epigenetic derep	-7.2%	1.1%	-1.8%	-6.2%	3.2%	0.9%	-1.5%	1.0%	2.2%	-5.6%

51	COc1cc(/C=C(\C#N)C(=O)NCC2CCCO2)cc(OC)c1OC (stereo unspecified)
52	CC(C)(C)c1ccccc1OCCOCCNCc1ccccc1
53	CCSc1cc(C2C(C#N)=C(N)OC(C)=C2C(=O)OC)c(C)o1 (stereo unspecified)
54	COc1cc(CN2CCN(Cc3ccc(SC)cc3)CC2)cc(OC)c1O
55	COc1ccc(-c2n[nH]c(=S)o2)c(OC)c1
56	CCOC(=O)N1CCN(C(=O)C2CCN(Cc3ccc(O)c(OCC)c3)CC2)CC1
57	N#CCC(=N)N1CCN(c2ccc(F)cc2)CC1
58	Nn1c(Nc2ccccc2)nc2sc3c(c2c1=O)CCCC3
59	C=CCc1ccc(OCCCCN2CC(C)CC(C)C2)c(OC)c1 (stereo unspecified)
60	c1ccc2c(c1)NC(c1ccncc1)n1c-2nc2ccccc21 (stereo unspecified)
Screen / compound no.	51	52	53	54	55	56	57	58	59	60
GoLoco inh red	11%	7%	50%[activator]	-1%	6%	3%	-4%	17%	-11%	23%
KinaseGlo FLuc	-4%	12%	0%	0%	-1%	0%	-2%	-3%	1%	-8%
IMPase Li inh	14%	-5%	14%[38.3 µM]	7%	-3%[38.3 µM]	4%	-2%	1%	25%	7%[38.3 µM]
NPSR antagonist	18%	-22%	-16%[46.1 µM]	7%	-8%[46.1 µM]	15%	-7%	-24%	-4%	-3%[46.1 µM]
SMN2 splice up	.	-14%	.	.	16%	-4%	2%	?	-15%	3%
RECQ1 inh	2%	-16%	-1%	-8%	i	9%	-4%	-4%	i	-14%
Epigenetic derep	-1.0%	-2.5%	-2.0%	-4.7%	13%	-0.1%	1.1%	-4.3%	1.3%	-2.2%
